# Compound activity from PubChem.
# CtBP-E1A blk: qHTS Assay for Inhibitors of the CtBP/E1A Interaction; activity change, % (concentration not given with the values); 340,000 tested, 0.49% active; CtBP / adenovirus E1A interaction (AlphaScreen); AlphaScreen GST-E1A/His-CtBP binding, 1536-well; hits give low values; control for the full effect not named in the record; in the data active means activity change below about -65%; inconclusive means about -30% to -65%; inactive means above about -30%; also: % is scaled to controls: 0 for no effect and ±100 for the full control effect
#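 AlphaScreen with 125 nM GST-E1A and 125 nM His-CtBP (5X stocks) in Tris pH 8.0, 300 mM NaCl, BSA, Tween 20, TCEP. Compounds preincubated 2 h at 37 deg C, then glutathione donor/nickel acceptor beads added for 1 h at 37 deg C in dark.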
# Six1-Eya2 inh: qHTS Assay for Inhibitors of the Six1/Eya2 Interaction; AlphaScreen GST-Six1/His-Eya2 binding, biochemical; hits give low values; control for the full effect not named in the record; activity change, % (concentration not given with the values); 360,000 tested, 0.56% active; AID 651725, 2012; in the data active = activity change below about -65%; inconclusive = about -30% to -65%; inactive = above about -30%; also: % is scaled to controls: 0 for no effect and ±100 for the full control effect
#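 AlphaScreen luminescence read after one hour at 37 °C in darkness. Pin-transferred compounds met GST-Six1 and His-Eya2 protein (5X stock 250 nM/500 nM) plus glutathione donor and Ni-chelate acceptor beads (5X, 50 ug/mL).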
# TRPML1 agonist: qHTS for Agonists of the Human Mucolipin Transient Receptor Potential 1 (TRPML1); Mucolipin-1 (Homo sapiens), Q9GZU1; TRPML1-expressing cells, Ca2+ dye fluorescence, FDSS; host cell line not named in the record; reference of the full effect not given here; 410,000 tested, 0.12% active; AID 624414, 2012; activation, % (concentration not given with the values); in the data active = activation above about 50%; inconclusive = about 30% to 50%; inactive = below about 30%; also: 0% is about no effect; the text of the record puts the active cut at 80%
# Target sequence (Q9GZU1 whole entry, looked up): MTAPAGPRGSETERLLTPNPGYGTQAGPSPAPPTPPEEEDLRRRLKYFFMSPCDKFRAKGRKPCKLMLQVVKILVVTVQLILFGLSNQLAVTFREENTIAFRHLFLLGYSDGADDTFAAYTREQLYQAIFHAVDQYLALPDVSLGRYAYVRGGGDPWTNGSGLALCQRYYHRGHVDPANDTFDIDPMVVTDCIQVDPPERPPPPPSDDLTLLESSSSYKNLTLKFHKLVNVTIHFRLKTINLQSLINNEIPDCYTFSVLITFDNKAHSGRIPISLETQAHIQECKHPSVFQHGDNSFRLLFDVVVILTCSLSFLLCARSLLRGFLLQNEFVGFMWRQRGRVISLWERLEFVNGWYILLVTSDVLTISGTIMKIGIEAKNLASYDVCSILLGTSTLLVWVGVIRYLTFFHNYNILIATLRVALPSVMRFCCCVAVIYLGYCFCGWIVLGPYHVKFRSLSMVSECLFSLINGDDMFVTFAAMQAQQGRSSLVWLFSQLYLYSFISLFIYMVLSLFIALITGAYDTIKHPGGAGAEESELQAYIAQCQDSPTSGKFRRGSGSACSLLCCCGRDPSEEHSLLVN
#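 Calcium fluorescence on an FDSS kinetic reader gave the read-out. Tet-induced TRPML1-DL cells were plated overnight, dye-loaded (Ca8 with quencher, 45-90 min, room temperature, dark), then read 110 s after compound addition, and again 110 s after 4uM final 54-4 (EC80).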
# D2 ag: Beta-Arrestin HTS for Positive Allosteric Modulators of the Human D2 Dopamine Receptor: Agonists. D(2) dopamine receptor (Homo sapiens), P14416. DiscoveRx PathHunter D2 beta-arrestin, luminescence, 90 min; 100% = 57 uM dopamine signal. activation, % (concentration not given with the values). 360,000 tested, 0.084% active. AID 624465, 2012; in the data active = activation above about 40%; inconclusive = about 15% to 40%; inactive = below about 15%; also: compound concentration not given in the record; the text of the record calls up to 30% inactive
# Target sequence (P14416 whole entry, looked up): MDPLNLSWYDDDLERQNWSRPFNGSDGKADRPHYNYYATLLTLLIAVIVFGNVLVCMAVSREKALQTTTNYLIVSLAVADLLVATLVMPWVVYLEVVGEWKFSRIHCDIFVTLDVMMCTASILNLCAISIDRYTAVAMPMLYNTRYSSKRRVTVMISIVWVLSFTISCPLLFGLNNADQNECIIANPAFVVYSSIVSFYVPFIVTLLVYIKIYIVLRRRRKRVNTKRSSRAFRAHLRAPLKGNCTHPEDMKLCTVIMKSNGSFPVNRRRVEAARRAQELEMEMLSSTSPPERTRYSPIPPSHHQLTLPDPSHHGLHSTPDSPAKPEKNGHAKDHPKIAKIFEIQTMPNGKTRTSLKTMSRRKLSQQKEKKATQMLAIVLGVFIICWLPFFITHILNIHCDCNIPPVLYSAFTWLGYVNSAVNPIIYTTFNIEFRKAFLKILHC
#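 Agonist mode: compounds alone added to overnight-plated D2 PathHunter cells for 90 min at 37 C, with 57 uM final dopamine (EC100) defining full response. Beta-arrestin recruitment detected by chemiluminescent reagent, read after 1 h at ambient temperature.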
# PINK1 modulator: A Quantitative High throughput Screen to Identify Chemical Modulators of PINK1 Expression. AID 624263, 2012. 410,000 tested, 0.2% active. Potency, µM (series often up to 76.6 µM), without a hit: top-dose activation (PINK1 increase), hits mostly activators. PINK1 immunofluorescence, high-content cytometry, 24 h; active = well fitted activation curve with a large enough effect; inconclusive = small, poorly fitted or top-dose-only effect; inactive = flat fitted curve, though single readings scatter; cell line not stated here;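 also: potency is read from the fitted curve at half-maximal effect; % of control where 0% means no effect; nearly all actives have a fitted effect of over 65% in size; a mitochondrial uncoupler was the plate control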
#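 Compound titrations (5 concentrations, 24 h) on a stable cell line; DMSO and CCCP controls. Endpoint: fixed-cell PINK1 immunofluorescence with mitochondrial, cell and nuclear markers, scanned by microplate cytometer.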
# D2 PAM: Beta-Arrestin HTS for Positive Allosteric Modulators of the Human D2 Dopamine Receptor: Potentiators. 360,000 tested, 0.23% active. D(2) dopamine receptor (Homo sapiens), P14416. DiscoveRx D2 beta-arrestin cells, luminescence, 90 min; 100% = 57 uM dopamine signal. potentiation, % (no concentration beside the values); active = potentiation of 50% or more; inconclusive = 30% to 50%; inactive = 30% or less;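 also: compound concentration not given in the record; tested on top of an EC20 dose of dopamine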
#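 PathHunter beta-arrestin assay in DiscoveRx D2 cells. Compounds were added with an EC20 of dopamine (50 nM final) for 90 min at 37 deg C. Luminescence was read 1 h after detection reagent, with 57 uM dopamine as the EC100 control.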
# Active calls of the source: *; ? = inconclusive; . = not tested or not shown; [ ] = another dose, or the depositor's remark.
compound	CtBP-E1A blk	Six1-Eya2 inh	TRPML1 agonist	D2 ag	PINK1 modulator	D2 PAM
CCNC(=O)C1(C)CCCN1C(=O)c1ccc(F)c(Cl)c1 (stereo not given)	4.4	8.0	1.7	-3.6	-0.3%	-3.5
CSc1nc2nc(C)c(C/C=C/c3ccccc3)c(=O)n2[nH]1	3.1	-2.9	0.8	-1.1	0.4%	-0.1
CN1C(=S)SC(N(O)C(=O)Nc2cccc3ccccc23)C1(C)C (stereo not given)	-0.2	4.1	0.0	6.4	-2.9%	23.7
O=C(CSc1nnc(NC(=O)C2CC2)s1)Nc1ccc2c(c1)OCCO2	6.9	-20.7	0.4	-2.0	-0.4%	-5.4
CC(C)CCC(C)NC(=O)C1CCN(S(=O)(=O)/C=C/c2ccccc2)CC1 (stereo not given)	-3.0	-0.1	1.2	0.5	18.3%	0.9
CCOC(=O)C1CCCN(C(=O)CCNC(=O)Cn2ccc3ccccc3c2=O)C1 (stereo not given)	5.1	-0.1	-0.6	3.4	-1.8%	-1.3
CCN(CC(=O)Nc1ccc2c(c1)OCCO2)S(=O)(=O)c1ccc(F)cc1	0.8	8.4	-0.3	-3.5	-0.2%	-5.5
O=C(Cc1ncc(C(F)(F)F)cc1Cl)NCCc1ccccn1	0.0	-4.1	1.2	0.7	0.5%	-24.5
COc1nc(-c2ccccc2)c2c(c1C#N)CC(C)(C)OC2	11.0	-5.6	1.8	-1.0	-0.2%	-9.3
C=CCN1CCN(C(=O)c2cc3c(s2)CCC(CC)C3)CC1 (stereo not given)	-1.0	-4.0	1.8	-6.0	0.8%	-40.7
Cc1ccc(-c2nn3c(C)nnc3c3ccccc23)cc1S(=O)(=O)NCCN1CCOCC1	-5.7	-3.6	2.6	-2.7	8.5%[38.3 µM]	-9.4
Cc1ccc(S(=O)(=O)NCC(C)NS(=O)(=O)c2ccccc2[N+](=O)[O-])cc1 (stereo not given)	1.0	-0.7	0.4	3.3	2.5%	5.2
CCCCCC(=O)N1C[C@H](n2cc(COC(=O)c3ccccc3)nn2)[C@@H](O)C[C@@H]1c1ccc(C)cc1	-25.3	5.9	4.9	-1.7	14.7%	-4.1
CCc1noc(C)c1C(=O)Nc1cc(S(=O)(=O)N(CC)CC)ccc1N1CCOCC1	-0.7	9.3	0.2	0.0	4.2%	-18.1
O=C(Nc1ccc(F)c(Cl)c1)C1Cc2c(-c3ccccc3Oc3ccccc3)ccnc2O1 (stereo not given)	0.4	1.4	0.6	13.0	3.7%	-10.6
COc1ccc2c(c1)C(c1ccc(C)o1)=NNC(c1cccnc1)=N2	1.7	-11.7	-1.1	-5.4	0.9%	-16.6
COc1ccc(C)cc1S(=O)(=O)N1CCC(C)CC1	2.4	9.8	-0.4	-2.2	10.3%[38.3 µM]	-8.3
CSc1nc(-c2ccc(C)cc2)[nH]c1S(=O)(=O)c1ccccc1	-22.2	-15.4	0.1	-5.5	0.8%	-27.6
Cc1ccc2c(CC(=O)Nc3ccc4nc(N5CCOCC5)sc4c3)coc2c1	-8.3	-1.1	0.3	6.3	5.0%	-1.8
COc1ccc2c(c1)-c1ccccc1S(=O)(=O)N2C	23.1	6.5	1.4	0.7	-2.4%	-12.6
NC(=O)c1cc2cc([N+](=O)[O-])ccc2oc1=O	8.0	7.1	-0.6	-6.4	14.9%	-16.3
O=C(NCc1ccccn1)[C@H]1C[C@@H]1[C@H](NP(=O)(c1ccccc1)c1ccccc1)c1ccccc1	-19.3	15.0	0.4	-3.2	1.4%	-3.1
CCOc1ccc(NC(C)C(=O)N/N=C/c2cccs2)cc1 (stereo not given)	-10.9	?	-0.4	-2.1	2.8%	-4.5
CC(C)n1nc(C(=O)NNC(=O)c2ccncc2)c2ccccc2c1=O	-3.2	4.0	2.4	1.0	-1.7%	-18.5
Cc1cc(C(=O)COc2ccccc2C(N)=O)c(C)n1CC1CCCO1 (stereo not given)	0.4	-5.9	1.0	0.1	-1.2%	-3.4
CCCCNC1C(CC)C(CCC)C(C#N)(C#N)C1(C#N)C#N (stereo not given)	6.4	-5.8	-0.4	-3.2	0.0%	-19.7
O=S(=O)(Nc1cccc(CCc2ccccn2)c1)c1ccc2ccccc2c1	2.5	6.5	-1.1	-1.2	0.5%	1.0
COC(=O)c1ccc(C(NC(=O)OCc2ccccc2)/C(C)=C/[C@@H](C)C(=O)NCc2ccc(OC)c(OC)c2)cc1 (stereo not given in full)	-3.6	-6.5	-0.6	5.8	-0.1%	10.1
CCc1cccc(NC(=O)CCNS(=O)(=O)c2cc(Br)cnc2N)c1	6.4	2.7	1.1	-3.9	0.9%	-7.4
CC[C@H]1OC(=O)[C@H](C)[C@@H](O[C@H]2C[C@@](C)(OC)[C@@H](O)[C@H](C)O2)[C@H](C)[C@@H](O[C@@H]2O[C@H](C)C[C@H](N(C)C)[C@H]2O)[C@](C)(OC)C[C@@H](C)C(=O)[C@H](C)[C@@H](O)[C@]1(C)O	-11.3	6.6	0.5	-4.7	-0.3%	-2.9

# 5 entries from above, sorted by length of the SMILES, highest first.
compound	CtBP-E1A blk	Six1-Eya2 inh	TRPML1 agonist	D2 ag	PINK1 modulator	D2 PAM
O=C(NCc1ccccn1)[C@H]1C[C@@H]1[C@H](NP(=O)(c1ccccc1)c1ccccc1)c1ccccc1	-19.3	15.0	0.4	-3.2	1.4%	-3.1
O=S(=O)(Nc1cccc(CCc2ccccn2)c1)c1ccc2ccccc2c1	2.5	6.5	-1.1	-1.2	0.5%	1.0
CCc1cccc(NC(=O)CCNS(=O)(=O)c2cc(Br)cnc2N)c1	6.4	2.7	1.1	-3.9	0.9%	-7.4
CCOc1ccc(NC(C)C(=O)N/N=C/c2cccs2)cc1 (stereo not given)	-10.9	?	-0.4	-2.1	2.8%	-4.5
COc1ccc2c(c1)-c1ccccc1S(=O)(=O)N2C	23.1	6.5	1.4	0.7	-2.4%	-12.6

# Returning to the listing; the four compounds before the break are reprinted first.
compound	CtBP-E1A blk	Six1-Eya2 inh	TRPML1 agonist	D2 ag	PINK1 modulator	D2 PAM
O=S(=O)(Nc1cccc(CCc2ccccn2)c1)c1ccc2ccccc2c1	2.5	6.5	-1.1	-1.2	0.5%	1.0
COC(=O)c1ccc(C(NC(=O)OCc2ccccc2)/C(C)=C/[C@@H](C)C(=O)NCc2ccc(OC)c(OC)c2)cc1 (stereo not given in full)	-3.6	-6.5	-0.6	5.8	-0.1%	10.1
CCc1cccc(NC(=O)CCNS(=O)(=O)c2cc(Br)cnc2N)c1	6.4	2.7	1.1	-3.9	0.9%	-7.4
CC[C@H]1OC(=O)[C@H](C)[C@@H](O[C@H]2C[C@@](C)(OC)[C@@H](O)[C@H](C)O2)[C@H](C)[C@@H](O[C@@H]2O[C@H](C)C[C@H](N(C)C)[C@H]2O)[C@](C)(OC)C[C@@H](C)C(=O)[C@H](C)[C@@H](O)[C@]1(C)O	-11.3	6.6	0.5	-4.7	-0.3%	-2.9
O=C(CCNc1ccc(Cl)c(C(F)(F)F)c1)c1ccco1	2.0	-6.0	0.1	-4.2	2.2%	-2.3
Cc1onc(-c2ccccc2Cl)c1C(=O)Nc1nnc(-c2ccc(F)cc2)s1	6.5	1.7	-0.1	-1.8	1.5%	-2.4
Cc1cccc(OCC(=O)N/N=C\c2cc3c(cc2[N+](=O)[O-])OCO3)c1C	-13.6	-16.8	2.3	-1.4	0.5%[38.3 µM]	-9.9
CCS(=O)(=O)C1=NN2C(=N)/C(=C\c3ccc(OCCOc4cccc(OC)c4)c(OC)c3)C(=O)N=C2S1	-21.6	-2.2	0.3	-2.9	1.2%	-2.7
CC(=O)Nc1ccc(S(=O)(=O)N2CCC(C(=O)NCc3ccncc3)CC2)cc1	5.8	4.3	-0.8	1.2	-1.4%	1.6
C#CCSc1nsc(SCC#C)c1C#N	7.0	-3.3	-0.5	-0.1	-3.3%[38.3 µM]	8.1
O=C(CCC(=O)N1CCN(S(=O)(=O)c2ccc3ccccc3c2)CC1)Nc1cc(Cl)cc(Cl)c1	3.0	-6.1	0.2	-1.5	-0.6%	-11.6
COc1ccc(CNC(=O)Nc2nc(C(N)c3ccccc3)cs2)cc1 (stereo not given)	?	?	3.1	-9.6	1.7%	-12.8
Cc1c(NC(=O)COC(=O)c2ccc(Cl)nc2)c(=O)n(-c2ccccc2)n1C	-9.6	2.2	0.9	-2.6	1.3%	-7.1
OC(CNC1CCCC1)COc1ccccc1Br (stereo not given)	.	10.1	-0.7	-5.9	5.8%	-70.8
COCCNC(=O)CN(C(=O)CCC(=O)Nc1ccccn1)c1ccc(C)c(C)c1	4.8	-1.8	-0.7	3.3	0.7%	-6.8
COc1ccc(/C=C(\NC(=O)c2cccs2)C(=O)NCc2ccco2)cc1OC	-2.1	-1.2	-0.8	-7.7	-0.6%	-5.1
COc1cc2c(cc1OC)-c1cc(N3CCCCCC3)nc(=O)n1CC2	2.5	?	0.5	3.2	-4.2%[38.3 µM]	-14.8
Cc1ccc(C(=O)OCC(=O)NC(=O)c2ccc(C(C)(C)C)cc2)c(O)c1	5.4	6.9	-0.4	-2.5	-6.7%	-10.0
CC(C)(C)N(Cc1ccccc1)C(=O)CN1C(=O)NC2(CCCCCC2)C1=O	3.5	5.2	1.3	-3.2	-0.9%	-2.7
O=C(OCCOc1ccccc1)c1n[nH]c2ccccc12	2.7	-0.3	1.8	1.8	1.7%	-6.5
NC(=O)c1cc(S(=O)(=O)N2CCc3ccccc3C2)cs1	4.6	25.5	-0.8	1.5	3.8%	3.0
COc1ccc(N2CCN(C(CNC(=O)OCc3ccccc3)c3ccco3)CC2)cc1 (stereo not given)	-23.8	?	-0.5	-6.7	-1.8%	-20.3
COC(=O)[C@]1(C)N[C@H](CN(C)C(=O)Nc2ccc(C(F)(F)F)cc2)[C@@H]2C(=O)N(C)C(=O)[C@@H]21	5.8	-0.6	-0.2	0.8	-0.2%	.
CCn1c(C(=O)N2CCc3ccccc3C2)cc2oc3ccccc3c21	-26.0	?	1.5	-3.5	-1.5%	-1.4
Cc1ccc(Oc2ncccc2N)c2c1CCC2	-2.7	-0.4	1.1	-1.2	2.6%	-2.6
CCOC(=O)c1c(NC(=O)COC(=O)CNC(=O)c2ccco2)sc(C)c1C	-5.1	-12.8	-0.8	-2.8	-1.6%	1.2
